# AF4-AF9 inh – inhibitors of human MLL-AF4/AF9 interaction. P42568. AlphaScreen, biotin-AF4 peptide binding to FLAG-AF9. inhibition, % at 10 µM. 350,000 compounds, 0.47% hits. AID 651704;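 active = every replicate reaching a set inhibition limit, whatever the replicate mean, cut at about 25% in these data; inconclusive = mean inhibition reaches that limit but some replicates miss it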;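 note: 0% = plate neutral control median and 100% = total signal loss; the record names both 10 and 1 µM as test concentration; the first replicate is given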
# Target sequence (P42568 whole entry, looked up): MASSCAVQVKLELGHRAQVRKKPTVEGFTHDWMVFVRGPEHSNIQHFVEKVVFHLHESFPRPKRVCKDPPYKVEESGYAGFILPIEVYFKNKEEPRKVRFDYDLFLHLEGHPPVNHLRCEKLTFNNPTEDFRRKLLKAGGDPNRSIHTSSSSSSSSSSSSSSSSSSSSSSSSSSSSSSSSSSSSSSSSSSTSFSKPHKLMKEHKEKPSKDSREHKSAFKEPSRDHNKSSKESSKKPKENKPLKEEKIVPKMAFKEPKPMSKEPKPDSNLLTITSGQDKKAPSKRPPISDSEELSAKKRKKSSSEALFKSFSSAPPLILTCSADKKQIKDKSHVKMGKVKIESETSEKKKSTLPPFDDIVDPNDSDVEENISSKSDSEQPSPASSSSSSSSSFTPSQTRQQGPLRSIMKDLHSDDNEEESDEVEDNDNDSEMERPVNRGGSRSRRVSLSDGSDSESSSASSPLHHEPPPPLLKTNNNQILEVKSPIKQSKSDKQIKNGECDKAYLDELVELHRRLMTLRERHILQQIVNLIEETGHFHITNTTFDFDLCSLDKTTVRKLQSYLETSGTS
# ALR inh – blocks human ALR sulfhydryl oxidase activity; P55789; purified ALR, DTT oxidation, H2O2 HRP-luminol luminescence; inhibition, % (concentration not given with the values); 290,000 compounds, 3.8% hits;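 active = mean and each replicate at 75% or more; inconclusive = only one of the two met; inactive = neither met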;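 note: stock transfer was 7.5 nL into about 7.5 µL; 0% = neutral wells and 100% = wells with inactivated enzyme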
# Target sequence (P55789 whole entry, looked up): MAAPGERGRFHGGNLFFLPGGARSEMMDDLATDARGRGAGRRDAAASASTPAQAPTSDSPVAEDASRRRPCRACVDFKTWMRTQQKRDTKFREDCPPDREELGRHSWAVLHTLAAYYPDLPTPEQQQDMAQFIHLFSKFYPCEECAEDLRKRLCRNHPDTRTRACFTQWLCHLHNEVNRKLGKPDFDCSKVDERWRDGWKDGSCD
# Calb FLC – affects C. albicans growth with fluconazole. C. albicans CaCi-2 (fluconazole-resistant clinical isolate) + fluconazole, Alamar Blue growth, 48 h. 300,000 compounds, 0.57% hits. AID 1979. growth inhibition, % (test concentration not listed);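 active = most replicates above 75%; inconclusive = exactly half above 75%; inactive = most below 75%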;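 note: all wells also contain fluconazole at 8 µg/ml as a sub-toxic cotreatment; 0% = median of DMSO wells and 100% = median of geldanamycin control wells; wells of about 8 µL received 7.5 nL stock; the first replicate is given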
# Ecoli rRNA inh – inhibits bacterial ribosomal RNA function over humanized ribosomes. E. coli WT GFP vs humanized-ribosome RFP mutants, fluorescence, 24 h; stronger effect = lower value; DMSO median 0, no signal -100. GFP signal change (wild-type ribosome), % (no concentration beside the values). 350,000 compounds, 1.6% hits. AID 720706;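 active = significant combined selectivity score with lowered wild-type GFP, culture density cut under 30%, mutant RFP and density less affected; inactive = any of these conditions unmet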; note: one replicate is shown; some compounds called inactive have numbers as strong as hits
# T cruzi inh – T. cruzi replication inhibition; T. cruzi beta-gal in NIH3T3, luminescence, 90 h; 300,000 compounds, 1.4% hits; inhibition, % (test concentration not listed); AID 1885;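 active = mean inhibition across valid replicates above about 55%, limit read from the data; inconclusive = mean below that limit but half or more replicates reach it; inactive = mean below it, under half of replicates reach it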;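 note: signal also drops with host cell toxicity which is not excluded here; 0% = plate median of DMSO wells and 100% = zero luminescence signal; higher percent means less beta-gal luminescence so fewer parasites; stock transfer was 50 nL into about 50 µL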
# RanGTP-Impb inh – inhibitors of RanGTP-importin-beta interaction, primary screen, biochemical, FRET, CFP-Ran, YFP-importin-beta, homogeneous. cell-free CFP-Ran/YFP-importin-beta FRET ratio. inhibition, % (test concentration not listed). 300,000 compounds, 1.1% hits. AID 2216;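 active = most replicates above 15%; inconclusive = exactly half above 15%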;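 note: 0% = DMSO wells and 100% = Ran loaded with GDP instead of GTP; wells of about 40 µL received 100 nL stock; the first replicate is given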
# Beta apoptosis – blocks beta cell apoptosis; INS-1E cytokine-induced death, ATP luminescence, 48 h; percent of positive-control rescue, neutral wells zero; protection from apoptosis, % (test concentration not listed); 300,000 compounds, 0.8% hits; AID 435005;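 active = all replicates at 75% or more, or half of them and the mean; inconclusive = half reach 75% but not the mean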;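 note: 0% = cytokine-treated negative control wells and 100% = positive control rescue; higher means more ATP so stronger rescue from cytokine killing; wells of about 40 µL received 100 nL stock; the first replicate is given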
# FGF22 binding – FGF22 (human) thermal shift binding. 340,000 compounds, 1.5% hits. Q9HCT0. calls only at 9.99 µM. recombinant FGF22 thermal shift, SYPRO orange fluorescence; percent of sucrose octasulfate shift, DMSO zero;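 active = melting point raised past a set limit in the mean and every replicate; inconclusive = no clear call; three in four hits are not shown here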
# Target sequence (Q9HCT0 whole entry, looked up): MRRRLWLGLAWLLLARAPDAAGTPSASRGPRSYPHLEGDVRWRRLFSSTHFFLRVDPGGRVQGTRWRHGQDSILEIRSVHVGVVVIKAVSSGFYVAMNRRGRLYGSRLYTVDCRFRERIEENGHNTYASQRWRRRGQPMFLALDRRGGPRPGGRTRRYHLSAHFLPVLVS
# Ecoli rRNA inh OD600 – second read-out of Ecoli rRNA inh, no call of its own (marks repeat the call); OD600 change, %; measured here: OD600 growth;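 optical density of the mix in the first replicate; 0 = DMSO median and -100 = no signal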
# Ecoli rRNA inh RFP – further read-out of Ecoli rRNA inh, marked with its call; RFP signal change, %; measured here: RFP humanized mutant strains;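 first replicate; 0 = DMSO median and -100 = no signal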
# * = called active by the depositor; i = inactive; ? = inconclusive; . = not tested or not shown; + = active, no number. The list is partial; count on the stated rates, not on these rows.
# Values run as follows: AF4-AF9 inh	ALR inh	Calb FLC	Ecoli rRNA inh	Ecoli rRNA inh OD600	Ecoli rRNA inh RFP	T cruzi inh	RanGTP-Impb inh	Beta apoptosis	FGF22 binding
CC(=O)c1sc(NC(=O)CN2C(=O)C3CC=CCC3C2=O)nc1-c1ccccc1 (stereo not drawn)
  0.9	.	8	-18	-19	-2.8	-16	4.9	2	i
Cc1cccc(N2CCN(C(=O)C3CCN(S(=O)(=O)N4CCOCC4)CC3)CC2)c1C
  1.9	-1	31	-16	-20	-10	-2	3.1	3	i
O=C(Cc1ccccc1F)NCC1(N2CCOCC2)CCCCC1
  -1.0	3	-2	8	4	-7.9	-4	2.1	-3	i
Cc1cc2ncn(C(=O)N3CCC(C)CC3)c2cc1C
  .	-5	0	.	.	.	-16	-2.8	-5	.
N#Cc1cc(Sc2ccccn2)c(Sc2ccccn2)cc1C#N
  .	-8	-1	.	.	.	51	2.4	-6	.
Cn1cc(C(=O)N/N=C/C(Br)=C/c2ccccc2)ccc1=O
  -14	-3	5	2	3	7.6	-12	-0.3	-6	i
COc1cc(C2Nc3ccc4ccccc4c3C3=C2C(=O)CC(C)(C)C3)ccc1OC(C)C(=O)O (stereo not drawn)
  4.3	-64	11	-1	3	-1.7	-14	2.3	-3	i
Cc1ccccc1NC1=NC(=S)N(c2ccccc2)C12CCOC(C)(C)C2 (stereo not drawn)
  .	-14	-1	.	.	.	10	-0.5	-2	.
Cc1cccc(NC(=S)N(Cc2cccs2)Cc2cc3cc(C)cc(C)c3[nH]c2=O)c1
  .	-7	1	.	.	.	1	-2.0	18	.
CC1=CC(C)(C)N2C(=O)C3(NCCc4c3[nH]c3ccccc43)c3cc(C)cc1c32 (stereo not drawn)
  8.7	0	-4	-8	-9	-8.3	1	5.7	3	i
Cc1cc(C)c2nc(/N=C(\N)NC(=O)c3ccccc3)nc(C)c2c1
  -4.4	-15	-3	10	-8	0.4	9	2.3	2	i
O=C(Nc1ccccc1C(=O)N1CCN(Cc2ccccc2)CC1)c1ccccn1
  .	-4	4	.	.	.	-2	-0.4	-3	.
CC(C)[C@@H]1NC(=O)N(c2ccc(Oc3ccccc3)cc2)C1=O
  .	0	7	.	.	.	-16	-3.8	-2	.
Cc1cc(=O)oc2cc(OCC(=O)N3CC(=O)Nc4ccccc43)c(Cl)cc12
  0.6	-5	.	7	-2	2.6	.	.	-2	i
CCCCS(=O)(=O)NC1=NCN(CCO)CN1
  .	-5	-15	.	.	.	-12	-0.6	-1	.

# Compound profiles, from the list above. Order of values: AF4-AF9 inh | ALR inh | Calb FLC | Ecoli rRNA inh | Ecoli rRNA inh OD600 | Ecoli rRNA inh RFP | T cruzi inh | RanGTP-Impb inh | Beta apoptosis | FGF22 binding
# Shown for O=C(Cc1ccccc1F)NCC1(N2CCOCC2)CCCCC1 : -1.0 | 3 | -2 | 8 | 4 | -7.9 | -4 | 2.1 | -3 | i
# Shown for Cc1cc(=O)oc2cc(OCC(=O)N3CC(=O)Nc4ccccc43)c(Cl)cc12 : 0.6 | -5 | . | 7 | -2 | 2.6 | . | . | -2 | i

# Later entries
# Values run as follows: AF4-AF9 inh	ALR inh	Calb FLC	Ecoli rRNA inh	Ecoli rRNA inh OD600	Ecoli rRNA inh RFP	T cruzi inh	RanGTP-Impb inh	Beta apoptosis	FGF22 binding
CCOC(=O)NC(=O)C(=CNc1cccc(OC)c1)C(=O)NC(=O)OCC
  -0.9	5	?	2	4	-2.6	-13	-2.3	2	i
CC(C)OCCCn1c(=O)c2ccccc2n2c(CCC(=O)N3CCN(c4ccccn4)CC3)nnc12
  -0.6	-2	-32	9	15	-1.0	12	0.3	2	i
CCOC(=O)N1CCN(C(=O)c2ccc(S(=O)(=O)Nc3ccc(C)cc3)cc2)CC1
  -0.6	-2	.	-1	-13	-1.3	.	.	26	i
Cc1cccc(NC(=S)N=Nc2c(O)n(C)c3ccc(S(=O)(=O)N4CCOCC4)cc23)c1
  3.3	-11	-4	11	8	8.9	44	4.1	41	i
CN(CC(=O)Nc1ccc(F)cc1)CC(=O)Nc1ccc(F)c(F)c1F
  -1.0	-2	-6	-3	-3	-0.7	-5	3.5	-1	i
CCc1ccc(/C=N/n2c(COc3ccccc3)n[nH]c2=S)cc1
  -1.6	-3	-10	3	14	2.1	-3	3.6	-6	i
O=C(Nc1ccncc1)c1ccc(F)cc1
  .	-6	9	.	.	.	1	3.2	-5	.
CS(=O)(=O)NCc1ccc(C(=O)O)cc1
  -5.8	22	-7	15	18	3.4	0	1.5	-4	i
CCC(NC(=O)c1cc(COc2ccc(F)c(F)c2)on1)c1ccncc1 (stereo not drawn)
  -1.3	.	-5	-7	-10	-2.2	2	-3.9	.	i
COc1nc(N/N=C/c2ccccc2F)nc(N2CCCCC2)n1
  .	-6	7	.	.	.	12	-3.9	-2	.
CCOC(=O)CNC(=O)c1cccs1
  .	.	-4	.	.	.	-17	0.7	-8	.
O=C(Nc1c(Cl)cccc1Cl)c1ccc(-c2ccccc2)cc1
  .	-17	4	.	.	.	23	2.2	6	.
Cc1sc(NC(=O)CN(Cc2ccc(F)cc2)C(=O)C(C)C)c(C(N)=O)c1C
  -42	-4	15	0	-4	0.5	-3	4.9	-9	i
COc1cc2c(C(F)(F)F)c(-c3ccsc3)oc(=O)c2cc1OC
  -1.2	.	.	-8	-10	-0.4	.	.	-3	i
COc1cc(NS(=O)(=O)c2ccc(NS(=O)(=O)c3ccc(C)cc3)cc2)nc(OC)n1
  -18	-2	-18	-4	10	-2.3	-5	1.0	-8	+

# Remaining list, next part.
# Values run as follows: AF4-AF9 inh	ALR inh	Calb FLC	Ecoli rRNA inh	Ecoli rRNA inh OD600	Ecoli rRNA inh RFP	T cruzi inh	RanGTP-Impb inh	Beta apoptosis	FGF22 binding
COC(=O)c1ccc(CSc2nnc3c(n2)[nH]c2ccccc23)cc1
  6.2	29	-1	14	17	-0.5	2	2.5	-2	i
CCOC(=O)C(C)Oc1cccc2c(=O)n(CC(=O)N3CCCc4ccccc43)ccc12 (stereo not drawn)
  -1.9	-11	0	6	13	-2.9	-24	?	-4	i
COc1ccccc1C(=O)NC(C)c1nc2ccccc2[nH]1 (stereo not drawn)
  .	-2	5	.	.	.	-5	-0.1	.	.
COc1cc(-c2nnc(NC(=O)CCS(=O)(=O)c3ccccc3)o2)cc(OC)c1OC
  -8.9	-7	-3	-5	-9	-0.9	-6	-4.2	.	i
CC(C)(C)n1nnnc1C(c1cccs1)N1CCN(C(=O)c2ccco2)CC1 (stereo not drawn)
  .	4	?	.	.	.	-10	-0.2	7	.
Cn1c(=O)[nH]c(=O)c2c1nc(N1CCCC1)n2CCO
  1.3	19	6	11	9	-1.1	-31	6.2	.	i
CN(CCc1ccccn1)C1CC(=O)N(c2ccc(Cl)cc2)C1=O (stereo not drawn)
  .	.	-1	.	.	.	-7	2.6	-6	.
CC(=O)OCC1O[C@@H](O[C@@H]2C[C@H]3C(C)(C)[C@H](OC(C)=O)CC[C@]3(C)[C@H]3CC[C@]45C[C@]4(CC[C@H]5[C@@H](C)C[C@@H](O)[C@H](O)C(C)(C)O)[C@@]32C)[C@H](O)[C@@H](O)[C@@H]1O (stereo partly drawn)
  .	-63	14	.	.	.	43	2.7	111*	.
CCC(=O)N1CCN=C1SCc1cccc(F)c1
  1.2	97*	-5	4	1	-4.6	2	2.0	.	i
C=CCN(CC=C)S(=O)(=O)c1ccc2nsnc2c1
  .	-6	13	.	.	.	11	-1.0	-3	.
COc1ccccc1NC(=O)CCS(=O)(=O)c1ccc2c(c1)NC(=O)C(C)S2 (stereo not drawn)
  .	1	-5	.	.	.	-1	1.5	-9	.
Cn1cnnc1SCC(=O)Nc1ccc2c(c1)CCC2
  .	-5	-1	21	2	2.2	-12	-2.4	-6	.
CCC/C(=N\NC(=O)c1ccc(CSc2nncn2C)cc1)c1ccccc1
  .	-46	7	.	.	.	-2	4.4	-5	.
OC(C#CCN1CCCCCC1)(c1ccccc1)c1cccnc1 (stereo not drawn)
  0.8	.	9	14	4	1.1	36	-2.5	-10	i
[O-]c1n[n+](-c2ccc(Cl)cc2Cl)cc2ccccc12
  1.1	22	0	-3	-1	-2.8	-10	?	-2	i

# Next section, starting with the last 4 of the part before.
# Values run as follows: AF4-AF9 inh	ALR inh	Calb FLC	Ecoli rRNA inh	Ecoli rRNA inh OD600	Ecoli rRNA inh RFP	T cruzi inh	RanGTP-Impb inh	Beta apoptosis	FGF22 binding
Cn1cnnc1SCC(=O)Nc1ccc2c(c1)CCC2
  .	-5	-1	21	2	2.2	-12	-2.4	-6	.
CCC/C(=N\NC(=O)c1ccc(CSc2nncn2C)cc1)c1ccccc1
  .	-46	7	.	.	.	-2	4.4	-5	.
OC(C#CCN1CCCCCC1)(c1ccccc1)c1cccnc1 (stereo not drawn)
  0.8	.	9	14	4	1.1	36	-2.5	-10	i
[O-]c1n[n+](-c2ccc(Cl)cc2Cl)cc2ccccc12
  1.1	22	0	-3	-1	-2.8	-10	?	-2	i
COC(=O)c1ccc(NC(=O)COC(=O)c2cccc3c(=O)c(C)c(-c4ccccc4)oc23)cc1
  0.7	-12	?	-3	1	2.2	13	1.8	-6	i
COc1ccc(C(C(=O)NC2CCCC2)N(CCN(C)C)C(=O)c2snc(C(N)=O)c2N)cc1 (stereo not drawn)
  .	-9	-3	.	.	.	-4	2.5	-7	.
CCOc1cc(Br)cc(C(c2c(C(=O)O)[nH]c3ccccc23)c2c(C(=O)O)[nH]c3ccccc23)c1O
  -20	44	4	21	25	2.4	-18	-8.4	-5	i
O=C1OCc2cc(NC(=O)C3CCCCC3)ccc21
  .	-6	-21	2	2	4.1	-2	-2.5	2	.
C=CCSc1nnc(-c2ccncc2)n1-c1ccc(OCC)cc1
  .	-1	-2	.	.	.	17	4.3	2	.
N=c1sccn1CC(=O)Nc1ccccc1Sc1ccccc1
  6.8	-3	-10	10	1	-0.9	3	?	-6	i
Cc1ccc(NC(=O)/C(C#N)=C/c2ccc(Sc3nc(C)cc(C)n3)o2)cc1
  -1.5	.	-7	7	7	2.7	8	-2.3	4	i
COc1cc(CN2CCC(C(=O)NC3CCCC3)CC2)cc(Br)c1O
  .	28	-3	.	.	.	-9	1.8	3	.
CN(CCOc1ccc(Br)cc1)CC(O)COc1ccc(C#N)cc1 (stereo not drawn)
  -4.9	-25	-4	-3	-16	5.8	38	2.4	2	i
CCn1c(SCC(=O)N/N=C/c2c[nH]c3ccccc23)nnc1-c1ccc(C)cc1
  0.8	-1	2	-33	-37	-5.1	-6	0.4	1	i
O=C(CN1C(=O)c2cccc3cccc1c23)N1CCN(c2ccccc2)CC1
  .	0	-2	.	.	.	10	2.7	-6	.
Cc1cccc(Cn2c(SCCN3CCOCC3)nc3c2c(=O)n(C)c(=O)n3C)c1
  -2.7	1	-5	-3	-18	-1.0	6	2.9	-1	i
CN(C(=O)CCS(=O)(=O)c1cc2c(cc1Cl)NC(=O)CO2)C1CCCCC1
  -7.2	-20	2	1	12	-1.7	7	-1.4	-4	i
CC(C)(C)c1ccc(-n2ncc3c2CCCC3NC(=O)CN2CCCCC2=O)cc1 (stereo not drawn)
  -9.7	-10	-26	0	-17	3.4	2	0.7	9	i
